Source: PubChem
UUG fidelity = yeast start codon fidelity modulation; activity score, % at 18.7 µM; hit rate 0.13% among 350,000; S. cerevisiae UUG-firefly luciferase reporter, luminescence/redox ratio;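 active = replicate mean at a twofold rise or more, about +100% in these data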;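 also: firefly luciferase made from a UUG start codon reports start codon fidelity; reporter light over untreated wells divided by growth signal over untreated wells; some hits fall short of that in this replicate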
HIV Env fusion = blocks HIV Env-driven cell-cell fusion. inhibition, % at 12.3 µM. HeLa-JRFL Env/CEM21 cell fusion, luciferase. hit rate 1.1% among 360,000. AID 651610;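 active = mean replicate inhibition score of at least 50 and every replicate individually at or above 50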;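 also: 0% = plate neutral controls and 100% = maraviroc near 300 nM; one replicate is shown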
Starred values were filed as active, the others as inactive; [ ] = remark or other dose. A portion of the library; rates above refer to the full screens.

Compound | UUG fidelity | HIV Env fusion
C[C@H]1CN([C@@H](C)CO)C(=O)c2cccc(NC(=O)Nc3ccccc3)c2O[C@H]1CN(C)S(=O)(=O)c1cn(C)cn1 | -9.9 | -13.9[16.7 µM]
COc1ccc(NC(=O)N(C)C[C@H]2Oc3c(NC(=O)Nc4ccc(C(F)(F)F)cc4)cccc3C(=O)N([C@@H](C)CO)C[C@@H]2C)cc1 | 21.3 | 9.8[16.7 µM]
CO[C@H]1CN(C)C(=O)c2cc(NC(=O)NC(C)C)ccc2OC[C@@H](C)N(C(=O)CN(C)C)C[C@H]1C | -4.6 | -1.9[16.7 µM]
C[C@@H]1CN([C@@H](C)CO)C(=O)c2cc(NC(=O)Nc3ccc(F)cc3)ccc2O[C@H]1CN(C)C(=O)Nc1ccccc1 | 9.0 | -12.5[16.7 µM]
C[C@H]1CN([C@@H](C)CO)C(=O)c2cc(-c3ccncc3)cnc2O[C@H]1CN(C)C(=O)c1ccc(F)cc1 | -0.9 | -8.1[16.7 µM]
C[C@@H]1CN([C@H](C)CO)C(=O)c2cccc(NC(=O)C3CCCCC3)c2O[C@H]1CN(C)C(=O)NC1CCCCC1 | -2.6 | 1.8[16.7 µM]
C[C@@H]1CN([C@H](C)CO)C(=O)c2cc(C3=CCCCC3)cnc2O[C@H]1CN(C)C(=O)Nc1ccc(F)cc1 | 14.2 | 6.8[16.7 µM]
C/C=C/c1cnc2c(c1)C(=O)N([C@H](C)CO)C[C@H](C)[C@@H](CN(C)S(=O)(=O)c1ccccc1)O2 | -2.3 | 25.2[16.7 µM]
CC(C)CC#Cc1cnc2c(c1)C(=O)N([C@@H](C)CO)C[C@@H](C)[C@H](CN(C)Cc1ccccc1)O2 | 8.8 | 19.1[16.7 µM]
O=C(NCC[C@H]1CC[C@@H](NC(=O)C2CCCC2)[C@H](CO)O1)c1cc(Cl)cc(Cl)c1 | -3.5 | 18.6[16.7 µM]
COc1ccc(NC(=O)N(C)C[C@H]2OCCCC[C@H](C)Oc3ccc(NC(=O)C4CCCCC4)cc3C(=O)N([C@H](C)CO)C[C@@H]2C)cc1 | -4.0 | -21.0[16.7 µM]
O=C(Nc1ccccc1)N[C@@H]1CC[C@@H](CCNS(=O)(=O)c2cccc(F)c2)O[C@@H]1CO | -0.4 | -5.5[16.7 µM]
C[C@@H]1CN([C@@H](C)CO)C(=O)Cc2cc(NC(=O)Cc3cn(C)c4ccccc34)ccc2O[C@H]1CN(C)CC1CCCCC1 | 35.5 | 9.8[16.7 µM]
C[C@H](CO)N1C[C@H](C)[C@H](CN(C)S(=O)(=O)c2cccs2)Oc2ncc(-c3cccc(C(F)(F)F)c3)cc2C1=O | -3.9 | 2.4[16.7 µM]
C[C@H]1CN([C@@H](C)CO)C(=O)Cc2cc(NC(=O)Cn3cnnn3)ccc2O[C@@H]1CN(C)C | -9.5 | -0.9[16.7 µM]
CC(=O)N(C)C[C@H]1Oc2ncc(-c3ccc(C(=O)N(C)C)cc3)cc2C(=O)N([C@H](C)CO)C[C@@H]1C | 15.0 | 17.3[16.7 µM]
C[C@@H]1CN([C@H](C)CO)S(=O)(=O)c2ccc(C#CC(C)(C)O)cc2O[C@H]1CN(C)C(=O)CN(C)C | 10.7 | -1.7[16.7 µM]
COc1ccc(CN(C)C[C@H]2Oc3ccc(NC(=O)Cc4cn(C)c5ccccc45)cc3CC(=O)N([C@@H](C)CO)C[C@H]2C)cc1 | 6.2 | -132.0[16.7 µM]
CCC(=O)N(C)C[C@@H]1Oc2ncc(C#Cc3ccccc3)cc2C(=O)N([C@H](C)CO)C[C@@H]1C | 5.1 | 18.8[16.7 µM]
Cc1ccc(S(=O)(=O)Nc2ccc3c(c2)C(=O)N([C@@H](C)CO)C[C@H](C)[C@H](CN(C)Cc2ccc(-c4ccccc4)cc2)O3)cc1 | 8.2 | -3.2[16.7 µM]
C[C@H]1CN([C@@H](C)CO)S(=O)(=O)c2ccc(C#CC3CC3)cc2O[C@@H]1CN(C)CC1CCOCC1 | 14.6 | -0.1[16.7 µM]
C[C@@H]1CCCCO[C@H](CN(C)Cc2ccncc2)[C@@H](C)CN([C@@H](C)CO)C(=O)c2cc(NC(=O)NC3CCCCC3)ccc2O1 | 0.5 | -39.7[16.7 µM]
CNC[C@@H]1Oc2c(NS(C)(=O)=O)cccc2C(=O)N([C@@H](C)CO)C[C@@H]1C | -13.8 | -20.2[16.7 µM]
Cc1ccc(S(=O)(=O)N[C@H]2CC[C@H](CC(=O)N3CCC(Cc4ccccc4)CC3)O[C@@H]2CO)cc1 | 9.8 | 13.3[16.7 µM]
Cc1noc(C)c1NC(=O)N(C)C[C@H]1OCCCC[C@@H](C)Oc2ccc(NS(=O)(=O)c3cn(C)cn3)cc2C(=O)N([C@H](C)CO)C[C@H]1C | -0.4 | -8.2[16.7 µM]
C[C@@H]1CCCCO[C@H](CN(C)C(=O)Nc2ccc(F)cc2)[C@@H](C)CN([C@@H](C)CO)C(=O)c2cc(NC(=O)Nc3ccccc3)ccc2O1 | -6.4 | -82.8[16.7 µM]
C[C@@H]1CN([C@@H](C)CO)C(=O)c2cc(NC(=O)Nc3ccc(C(F)(F)F)cc3)ccc2O[C@@H](C)CCCCO[C@H]1CN(C)S(=O)(=O)c1cn(C)cn1 | -2.5 | 14.5[16.7 µM]
C[C@H]1CN([C@@H](C)CO)C(=O)Cc2cc(NS(=O)(=O)c3ccccc3)ccc2O[C@H]1CN(C)Cc1ccc(C(=O)Nc2ccccc2N)cc1 | -2.5 | -237.8[16.7 µM]
Cc1ccc(S(=O)(=O)Nc2ccc3c(c2)C(=O)N(C)[C@@H]2CC[C@H](CC(=O)O)O[C@H]2CO3)cc1 | -5.1 | 4.2[16.7 µM]
C[C@H]1CN([C@@H](C)CO)C(=O)c2cc(NC(=O)CCC(F)(F)F)ccc2O[C@H]1CN(C)Cc1ccc2c(c1)OCO2 | 6.3 | -8.4[16.7 µM]
C[C@@H]1CN([C@@H](C)CO)C(=O)c2cc(C#Cc3ccccn3)cnc2O[C@H]1CN(C)Cc1ccncc1 | -8.6 | -7.9[16.7 µM]
CC(C)NC(=O)N(C)C[C@H]1OCCCC[C@H](C)Oc2ccc(NS(=O)(=O)c3ccccc3)cc2C(=O)N([C@H](C)CO)C[C@@H]1C | -6.1 | -96.4[16.7 µM]
CC(C)CC#Cc1cnc2c(c1)C(=O)N([C@@H](C)CO)C[C@@H](C)[C@@H](CN(C)S(=O)(=O)c1ccccc1)O2 | -5.1 | 7.3[16.7 µM]
CO[C@H]1CN(C)C(=O)c2ccc(NS(=O)(=O)c3c(C)noc3C)cc2OC[C@H](C)NC[C@@H]1C | 12.7 | 1.2[16.7 µM]
C=C1c2cccc(OC)c2O[C@H](C(=O)OCC)[C@@H]1CC(CC)CCCC (stereo partly drawn) | 12.2 | -35.6
O=C(C[C@H]1C=C[C@H](NC(=O)Nc2cc(F)ccc2F)[C@H](CO)O1)NCc1ccncn1 | -17.2 | -1.8[16.7 µM]
C[C@@H]1CN([C@@H](C)CO)C(=O)c2cc(NS(=O)(=O)c3ccc(F)cc3)ccc2O[C@@H](C)CCCCO[C@@H]1CN(C)S(=O)(=O)c1ccc(Cl)cc1 | -7.2 | -65.2[16.7 µM]
Cc1noc(C)c1NC(=O)N(C)C[C@@H]1Oc2ccc(NC(=O)NC3CCCCC3)cc2CC(=O)N([C@H](C)CO)C[C@@H]1C | -1.5 | -11.8[16.7 µM]
O=C(C[C@H]1CC[C@@H](NC(=O)Nc2ccc3c(c2)OCO3)[C@H](CO)O1)NCc1ccc(Cl)cc1 | -6.8 | -9.0[16.7 µM]
COc1cccc(-c2cnc3c(c2)C(=O)N([C@H](C)CO)C[C@H](C)[C@H](CN(C)C(=O)Nc2ccc(F)cc2)O3)c1 | 22.0 | -5.8[16.7 µM]
C[C@@H]1CN([C@@H](C)CO)C(=O)c2cc(NC(=O)Cc3ccccc3)ccc2O[C@@H](C)CCCCO[C@@H]1CN(C)C | -5.2 | -52.6[16.7 µM]
COc1cccc(S(=O)(=O)N2C[C@H](O)COC[C@H]3O[C@@H](CC(=O)N4CCN(c5ccccc5)CC4)CC[C@@H]32)c1 | 11.2 | -5.0[16.7 µM]
CO[C@@H]1CN(C)C(=O)c2cc(NC(C)=O)ccc2OC[C@@H](C)N(Cc2cc(F)ccc2F)C[C@H]1C | 5.8 | -4.9[16.7 µM]
C[C@@H]1CN([C@H](C)CO)S(=O)(=O)c2ccc(/C=C/c3ccccc3)cc2O[C@H]1CN(C)C(=O)NC1CCCC1 | -12.5 | -18.4[16.7 µM]
CN(C)C(=O)C[C@@H]1C[C@@H]2c3cc(NC(=O)C4CCOCC4)ccc3O[C@@H]2[C@H](CO)O1 | -5.2 | 5.7[16.7 µM]
CO[C@H]1CN(C)C(=O)c2ccc(NC(=O)C3CCCC3)cc2OC[C@H](C)N(CCC(F)(F)F)C[C@H]1C | -8.6 | 8.7[16.7 µM]
C[C@H]1CN([C@@H](C)CO)C(=O)c2cc(-c3cccc(C(=O)N(C)C)c3)cnc2O[C@H]1CN(C)C | -13.6 | 12.5[16.7 µM]
C[C@@H]1CCCCO[C@H](CN(C)C(=O)Nc2ccc(F)cc2)[C@@H](C)CN([C@@H](C)CO)C(=O)c2cc(NC(=O)c3ccccc3)ccc2O1 | -4.6 | -157.7[16.7 µM]
Cc1noc(C)c1NC(=O)N(C)C[C@@H]1Oc2ccc(NS(=O)(=O)c3ccccc3)cc2CC(=O)N([C@@H](C)CO)C[C@@H]1C | 4.2 | -6.2[16.7 µM]
CC(C)NC(=O)Nc1ccc2c(c1)CC(=O)N([C@H](C)CO)C[C@@H](C)[C@@H](CN(C)S(=O)(=O)c1cccs1)O2 | 41.2 | 14.4[16.7 µM]
O=C(C[C@H]1C[C@H]2c3cc(NC(=O)Nc4ccc(C(F)(F)F)cc4)ccc3O[C@H]2[C@H](CO)O1)NCCc1ccccc1 | -16.9 | 15.4[16.7 µM]
CCCNC(=O)N(C)C[C@@H]1Oc2cc(C#C[C@@H](C)O)ccc2S(=O)(=O)N([C@H](C)CO)C[C@H]1C | -2.0 | -14.0[16.7 µM]
O=C(C[C@@H]1CC[C@@H](NC(=O)Nc2ccccc2F)[C@@H](CO)O1)NCc1ccccc1 | 0.8 | -7.4[16.7 µM]
C[C@H](CO)N1C[C@H](C)[C@@H](CN(C)Cc2ccc(C(F)(F)F)cc2)Oc2ccc(NC(=O)Nc3ccc(C(F)(F)F)cc3)cc2CC1=O | -5.3 | 58.4*[16.7 µM]
Cc1ccc(S(=O)(=O)NCC[C@H]2CC[C@H](NC(=O)Nc3cccc(F)c3)[C@H](CO)O2)cc1 | -1.7 | -15.5[16.7 µM]
COc1ccc(CCN2C(=O)[C@@]3(Cc4ccccc42)c2ccccc2C(=O)N(C2CCCCC2)[C@H]3c2ccc(CO)cc2)cc1 | 39.3 | -13.1[16.7 µM]
C[C@@H]1CCCCO[C@H](CN(C)S(=O)(=O)c2ccc(Cl)cc2)[C@H](C)CN([C@@H](C)CO)C(=O)c2cc(NC(=O)CCCN(C)C)ccc2O1 | 43.0 | -9.6[16.7 µM]
CC(C)NC(=O)N(C)C[C@H]1Oc2ccc(NC(=O)Nc3ccccc3)cc2C(=O)N([C@H](C)CO)C[C@H]1C | -16.4 | 10.4[16.7 µM]
COc1ccc(S(=O)(=O)N(C)C[C@H]2Oc3ccc(NC(=O)Nc4cccc5ccccc45)cc3C(=O)N([C@H](C)CO)C[C@@H]2C)cc1 | -16.5 | 19.9[16.7 µM]
C[C@@H]1CCCCO[C@@H](CN(C)S(=O)(=O)c2ccccc2)[C@@H](C)CN([C@@H](C)CO)C(=O)c2cc(N(C)C)ccc2O1 | -1.4 | -25.7[16.7 µM]

Following part.
Compound | UUG fidelity | HIV Env fusion
C[C@@H]1CN([C@H](C)CO)C(=O)c2cc(NC(=O)Nc3ccc(F)cc3)ccc2O[C@@H]1CN(C)S(=O)(=O)c1ccc(F)cc1 | -10.1 | 18.8[16.7 µM]
CC(C)CC#Cc1ccc2c(c1)O[C@H](CN(C)C(=O)Nc1ccccc1)[C@H](C)CN([C@H](C)CO)S2(=O)=O | 6.1 | 10.7[16.7 µM]
CC(C)NC(=O)N(C)C[C@@H]1Oc2ncc(C#Cc3ccccc3F)cc2C(=O)N([C@H](C)CO)C[C@@H]1C | 0.2 | 10.3[16.7 µM]
O=S(=O)(N[C@H]1CC[C@@H](CCn2cc(-c3cccc(F)c3)nn2)O[C@@H]1CO)c1ccc(Cl)cc1 | 8.6 | 22.9[16.7 µM]
C[C@H]1CN([C@@H](C)CO)C(=O)c2cc(C#Cc3ccccc3)cnc2O[C@H]1CN(C)C(=O)CN(C)C | -5.2 | 15.4[16.7 µM]
C[C@H]1CN([C@@H](C)CO)C(=O)c2cc(-c3cccc(F)c3)cnc2O[C@@H]1CN(C)C(=O)Nc1cc(F)ccc1F | 7.2 | -22.8[16.7 µM]

6 entries from above, set out differently:
Results follow in this order: UUG fidelity | HIV Env fusion
CC(C)NC(=O)N(C)C[C@@H]1Oc2ncc(C#Cc3ccccc3F)cc2C(=O)N([C@H](C)CO)C[C@@H]1C
  0.2 | 10.3[16.7 µM]
C[C@H]1CN([C@@H](C)CO)C(=O)c2cc(-c3cccc(F)c3)cnc2O[C@@H]1CN(C)C(=O)Nc1cc(F)ccc1F
  7.2 | -22.8[16.7 µM]
C[C@@H]1CN([C@H](C)CO)C(=O)c2cc(NC(=O)Nc3ccc(F)cc3)ccc2O[C@@H]1CN(C)S(=O)(=O)c1ccc(F)cc1
  -10.1 | 18.8[16.7 µM]
O=S(=O)(N[C@H]1CC[C@@H](CCn2cc(-c3cccc(F)c3)nn2)O[C@@H]1CO)c1ccc(Cl)cc1
  8.6 | 22.9[16.7 µM]
CC(C)CC#Cc1ccc2c(c1)O[C@H](CN(C)C(=O)Nc1ccccc1)[C@H](C)CN([C@H](C)CO)S2(=O)=O
  6.1 | 10.7[16.7 µM]
C[C@H]1CN([C@@H](C)CO)C(=O)c2cc(C#Cc3ccccc3)cnc2O[C@H]1CN(C)C(=O)CN(C)C
  -5.2 | 15.4[16.7 µM]
